High-throughput results (PubChem)
nsP2pro inh – Primary qHTS for inhibitors of NSP2Pro chikungunya virus (CHIKV). Potency, µM (titrated, usually from 24.9 µM), for the others: at the top dose activity change, negative = inhibition, hits mostly inhibitors. 1.1% of 31,000 active. Polyprotein P1234 (Chikungunya virus (strain S27-African prototype)), Q8JUX6. FRET peptide cleavage, nsP2pro, fluorescence 1 h. AID 1964107, 2024; active means well fitted inhibition curve with a large enough effect; inconclusive means small, poorly fitted or top-dose-only effect; inactive means no such curve, though single readings can be large or run the other way; note: nearly all actives have a fitted effect of over 60% in size; a reference inhibitor and vehicle were the controls
* marks the source's active call; other numbers are inactive results; i = inactive; ? = inconclusive; [ ] = another dose, or the depositor's remark. % is set by controls: 0 for no effect and ±100 for the full control effect; potency is the fitted concentration of half-maximal effect.

SMILES | nsP2pro inh
COc1ccc(C)cc1NC(=O)N(C(C)C)C1CCN(C(C)=O)CC1 | -13.9%
CN(C)CCOC(c1ccccc1)c1ccc(Br)cc1 (stereo not drawn) | 1.3%
Cc1ccccc1OCC(=O)Nc1c(C(=O)Nc2ccccc2F)oc2ccccc12 | -23.6%
CC(=O)O[C@H]1CC[C@@]2(CI)C(=CC[C@@H]3[C@@H]2CC[C@]2(C)[C@@H]([C@H](C)CCCC(C)C)CC[C@@H]32)C1 | ?
Cc1ccc2c(c1)-c1nc(-c3ccc4c(c3)NC(=O)CO4)cc(-c3ccccc3)c1CO2 | -19.4%
NCC1(CC(=O)O)CCCCC1 | 27.3%
CC[C@]12CCCN3CCc4c(n(c5ccccc45)C(=O)C1)[C@@H]32 | 10.7%
COC(=O)c1ccccc1NC(=O)CSc1nc(-c2ccccc2)cc(C(F)(F)F)n1 | -10.9%
COc1cccc(CC(=O)N2CC[C@H](CO)[C@H](NC(=O)C3CC3)C2)c1 | -4.5%
Cc1ccc2nc(CN(C)C(=O)C3CCC(=O)N(C4CCCCCC4)C3)[nH]c2c1 (stereo not drawn) | i
CC(C)(C(=O)O)c1cnc(N2CC[C@H](CO)[C@H](O)C2)nc1N1CCOCC1 | 0.1%
CCOc1ccccc1NC(=O)C1CCN(S(=O)(=O)c2cccs2)CC1 | -19.9%
Nc1ncnc2c1ncn2C1C[C@H](O)[C@@H](CO)O1 (stereo partly drawn) | -10.0%
COc1ccccc1N1CCN(S(=O)(=O)c2ccc3c(c2)oc(=O)n3C)CC1 | -12.7%
COc1cc(OC)cc(OCc2nnc(C(=O)N3CCC[C@@H]3C)n2-c2ccccc2)c1 | 2.1%[39.2 µM]
O=C(Cn1cc(SCc2ccc(C(F)(F)F)cc2)c2ccccc21)N1CCCCC1 | ?
C=CCCC(CN1CCOCC1)Oc1ccc(-c2ccccc2)nn1 (stereo not drawn) | 2.7%
O=C(O)CNC(=O)C1C(=O)N(C2CCCCC2)C(=O)N(C2CCCCC2)C1=O | -17.9%
CCCn1cnc2cc(NCc3ccc(OC)cc3OC)ccc21 | -28.6%
CC1CC(C(O)C(C)(C)O)OC2CC3(C)C4(C)CCC5C(C)(C)C(=O)CCC5(C)C4CCC3(O)C12O (stereo not drawn) | -7.4%[10 µM]
O=C(Nc1cccc(C(F)(F)F)c1)Nc1ccc(Br)cc1-c1nn[nH]n1 | 75.7%[activator]
COc1ccc(/C=C/C(=O)O[C@@H]2[C@@H](O)[C@@H](O)[C@H](O[C@H]3[C@@H]4C=CO[C@@H](O[C@@H]5O[C@H](CO)[C@@H](O)[C@H](O)[C@H]5O)[C@@H]4[C@@]4(CO)O[C@@H]34)O[C@H]2C)cc1 | 5.3%[10 µM]
Cc1c(P(=S)(c2ccccc2)c2ccccc2)c2ccccc2n1C/C=C/c1ccccc1 | -4.4%
CC(C)[C@H]1C(=O)N[C@@H](CCCN=C(N)N)C(=O)NCC(=O)N[C@@H](CC(=O)O)C(=O)N[C@H](Cc2ccccc2)C(=O)N1C | -0.7%
Oc1ccc(NCc2ccc(OCc3ccccc3Cl)cc2)cc1 | ?
CN1CCN(C(=O)c2ccc3cc(CCNc4ncnc5ccc(C#N)cc45)ccc3c2)CC1 | 21.9%
Cc1ccc(S(=O)(=O)Nc2cnccc2C(=O)Nc2ccncc2)cc1 | i
COc1ccccc1N=c1scc(-c2ccc(S(=O)(=O)N3CCCC3)cc2)n1C | -27.7%
CC[C@H]1CN2CCc3cc(OC)c(OC)cc3[C@@H]2C[C@@H]1C[C@H]1NCCc2cc(O)c(OC)cc21 | ?
COc1cc(NC(=O)Cn2nc(C(F)(F)F)c3c2CCCC3)cc(OC)c1OC | 3.2%
Cc1ccc(CN2CCc3nc(C(=O)Nc4cccnc4)oc3CC2)o1 | 10µM*
FC(F)(F)c1cccc(CSc2nc3ncc(Br)cc3[nH]2)c1 | i
Cc1ccc2nc(SCc3nc(-c4ccccc4C)no3)[nH]c2c1 | -5.6%
CC(=O)N1CCCC(c2[nH]ccc2C(=O)N2CCN(c3ccccc3)CC2)C1 (stereo not drawn) | -17.2%
CS(=O)(=O)Nc1cc2occ(NC=O)c(=O)c2cc1Oc1ccccc1 | 1.2%
O=C(O)c1ccc(Nc2ncnc3scc(-c4ccccc4)c23)cc1 | -14.7%
O=C(O[C@H]1[C@@H]2C[C@@H]3OC[C@@](O)([C@H]2[C@H](O[C@@H]2O[C@H](CO)[C@@H](O)[C@H](O)[C@H]2O)O3)[C@@H]1O)c1ccccc1 | 20.9%[10 µM]
COc1ccc(Br)cc1S(=O)(=O)N1CCN(S(=O)(=O)c2ccc3c(c2)OCCO3)CC1 | -6.0%
OCc1nc2ccccc2n1Cc1c(F)cccc1Cl | 0.9%
O=C(OCC(COC(=O)c1cccnc1)(COC(=O)c1cccnc1)COC(=O)c1cccnc1)c1cccnc1 | 0.6%
COc1cccc(Nc2nccc3c(=O)cc(-c4ccccn4)oc23)c1 | ?
CCC(C(=O)N1CCN(c2ccccc2)CC1)n1c(C)c2cnn(-c3ccccc3)c(=O)c2c1C (stereo not drawn) | -16.7%
O=C1Nc2cccc(Cl)c2/C1=C\c1cc(Cl)c(O)c(Cl)c1 | i
C=CCc1ccccc1OCCSc1nc(-c2ccccc2F)nc2cc(=O)[nH]n12 | 2.8%
Cc1ccc(CN(Cc2ccco2)C(=O)COc2ccc(Cl)cc2)o1 | -35.7%

Entries above with a thiophene ring, fused or not, in the order listed:
SMILES | nsP2pro inh
CCOc1ccccc1NC(=O)C1CCN(S(=O)(=O)c2cccs2)CC1 | -19.9%
O=C(O)c1ccc(Nc2ncnc3scc(-c4ccccc4)c23)cc1 | -14.7%

The listing continues.
SMILES | nsP2pro inh
O=C1CCCc2cc(S(=O)(=O)N3CCCC(C(=O)Nc4ccc(F)c(Cl)c4)C3)ccc2N1 (stereo not drawn) | -10.1%
O=C(NC/C=C/CN1CCN(c2cccc(Cl)c2Cl)CC1)c1ccc(-c2ccccn2)cc1 | -1.4%
Cn1cnc(S(=O)(=O)N2CC(N(C3CCOCC3)S(C)(=O)=O)C2)c1 | i
O=C1NC(=O)/C(=C/c2ccco2)N1 | -21.6%
Nc1nc(Nc2cc(F)cc(F)c2)nc(NC2CCCC2)n1 | i
COc1cccc(CN2C[C@@H]3C(C(=O)O)[C@@H]3C2)c1OCCn1ccnc1 (stereo partly drawn) | 1.5%
CCc1ccccc1S(=O)(=O)Cc1ccc(C(=O)NCCc2ccc(C)cc2)o1 | -13.9%
Cc1cccc(Cn2c(C)c(CNC3CCCCCC3)c(C(=O)O)c2C)c1 | -15.0%
COc1ccc(S(=O)(=O)Nc2c(C)nc3nc[nH]n3c2=O)cc1 | -25.7%
C[C@@H]1O[C@@H](O[C@@H]2[C@@H](O)[C@H](O[C@H]3[C@H](O[C@H]4CC[C@@]5(C)C(CC[C@]6(C)C5CC=C5[C@@H]7CC(C)(C)CC[C@]7(C(=O)O[C@@H]7O[C@H](CO)[C@@H](O)[C@H](O)[C@H]7O)CC[C@]56C)C4(C)C)O[C@H](C(=O)O)[C@@H](O)[C@@H]3O)OC[C@H]2O)[C@H](O)[C@H](O)[C@H]1O (stereo partly drawn) | -16.0%[5.1 µM]
O=C(Cc1cccs1)N1CCOc2ccc(CN3CCCCC3)cc2C1 | -1.8%
CN(C)c1nc2c(c(N3C[C@@H](CN4CCCC4)[C@@H](CO)C3)n1)CCCC2 | -5.5%
Cn1cccc1C(=O)N1CC[C@H](CO)[C@H](NC(=O)C2CC2)C1 | 2.7%
COCc1noc(-c2ccc(NC[C@H]3CCc4ccccc4O3)nc2)n1 | -5.4%
Cc1nnc(SCC(=O)Nc2ccc(Br)cc2)[nH]c1=O | -6.0%
Cc1cnc(C2CC2)n1CC1CCNCC1 | -4.3%
O=C(OCc1cc(=O)n2nc(-c3cccs3)sc2n1)c1ccccc1Br | -9.7%
COc1cc(OC)c(N(C)C(=O)c2c(C)oc3ncnc(N4CCCCC4)c23)cc1Cl | -13.8%
CCOC(=O)C1CCC(CN(Cc2ccc(Cl)cc2)S(=O)(=O)c2ccc(F)c(C(=O)Nc3cccc(F)c3)c2)CC1 (stereo not drawn) | -15.0%
COc1ccc(C2=Nn3c(nnc3-c3cccc(OC)c3OC)SC2)cc1OC | -3.9%
Cc1n[nH]c(C)c1CNC(=O)C12CCCC=C1N(Cc1ccccc1)C(=O)CC2 (stereo not drawn) | 0.9%
O=C1CC(c2nc3ccccc3n2CCC2CCCCC2)CN1c1ccccc1Cl (stereo not drawn) | 13.1%
Cc1ccc(CNC(=O)c2nnn(Cc3ccc(F)cc3)c2N)cc1 | -6.0%
[O-][n+]1cccc(/C(Cl)=N/OC[C@@H](O)CN2CCCCC2)c1 | -1.9%
NC(=O)c1cnc(NCCc2ccc(O)c(Cl)c2)nc1NCc1ccccc1 | 13.6%
COCCCn1c(=O)c(C(=O)NC2CC2)nc2cccnc21 | -5.4%[39.2 µM]
CCOC(=O)c1oc2ccc(S(=O)(=O)n3nc(-c4ccccc4OC)cc3N)cc2c1C | -22.5%
Cn1nnnc1Sc1ncnc2scc(-c3ccc(N)cc3)c12 | -1.0%
COc1ccc(CN2CCCC(COc3ccccc3C(=O)NC3CC3)C2)c(OC)c1 (stereo not drawn) | i
CC1=C[C@@H](CNC(=O)C(C)(C)C)[C@H](C(C)C)C[C@H]1Cc1nnc(-c2ccncc2)o1 | ?

Some of the entries so far, as labelled records:
O=C(OCC(COC(=O)c1cccnc1)(COC(=O)c1cccnc1)COC(=O)c1cccnc1)c1cccnc1
  nsP2pro inh: 0.6%
COc1cccc(Nc2nccc3c(=O)cc(-c4ccccn4)oc23)c1
  nsP2pro inh: ?

Next records follow.
SMILES | nsP2pro inh
COc1ccccc1N1CCN(CC[C@@H]2CC[C@H](O)[C@@H](C(=O)Nc3ccccc3)O2)CC1 | i
O=C(Nc1ccc(Cl)c(C(F)(F)F)c1)C1CCCN(S(=O)(=O)c2cccc3cccnc23)C1 (stereo not drawn) | -10.8%
O=c1c2ccccc2nc2sc(Nc3ccc4c(c3)CCC4)nn12 | i
Cc1cccc(OC2(C(=O)O)CCN(c3cncc(C(N)=O)n3)CC2)c1 | 3.9%
Cc1sc(NC(=O)Cc2ccc3c(c2)OCO3)nc1-c1ccc2c(c1)CCN2C(=O)c1ccccc1C(F)(F)F | -6.9%
CC1(C)O[C@@H]2C[C@H]3[C@@H]4CCC5=CC(=O)C=C[C@]5(C)[C@@H]4[C@@H](O)C[C@]3(C)[C@]2(C(=O)CO)O1 | -5.3%
COc1ccccc1Nc1nc(N)nc(N)c1S(=O)(=O)c1ccccc1 | 1.0%
Cc1ccc(CSc2nnc(CCNC(=O)OC(C)(C)C)o2)cc1 | -17.6%
COC[C@@H]1[C@H](C(=O)N2CCN(c3ccccn3)CC2)CCC(=O)N1C | -5.2%
CC/C=C\CCO[C@@H]1O[C@H](CO)[C@@H](O)[C@H](O)[C@H]1O | 108.9%[activator]
CN(C)C[C@@H]1CN(C)C[C@H]1NS(=O)(=O)c1ccccc1F | -5.7%
Cc1ccc(Cl)cc1N(C)C(=O)c1cn(C2CCCCC2)c(=O)c2c1c1ccccc1n2C | -17.0%
CN(C)CC/C=C1\c2ccccc2CSc2ccccc21 | 13.7%
Oc1c(Cl)cc(Cl)c(Cl)c1Cc1c(O)c(Cl)cc(Cl)c1Cl | ?
O=C(/C=C\n1cnc(-c2cc(C(F)(F)F)cc(C(F)(F)F)c2)n1)NNc1ccccn1 | 34.7%[activator]
CCN(CC)CCCNC(=O)c1nn(-c2ccc(OC)c(Cl)c2)c(=O)c2c1c1ccccc1n2C | 20.8%
C/C(=C\c1ccccc1)C1Nc2cccc3cccc(c23)N1 | i
COc1cc(C(=O)Oc2c(Sc3ccccc3)c(C)nn2-c2ccccc2)cc(OC)c1OC | -21.0%
Cn1nc(N2CCC(NC(=O)c3ncccn3)CC2)ccc1=O | -11.9%
CCN(c1ccccc1)S(=O)(=O)c1nnc(NC(=O)COc2cccc(C)c2)s1 | -20.0%
CC[C@H](C)C(=O)O[C@H]1C[C@@H](C)C=C2C=C[C@H](C)[C@H](CC[C@@H]3C[C@@H](O)CC(=O)O3)[C@H]21 | -13.3%
Cc1ccccc1NC(=O)Nc1nnc(N(C)Cc2ccccc2)s1 | -13.6%
Cc1ccc(-n2ncc(C(=O)NC3CCCCC3)c2C2CCN(C(=O)OC(C)(C)C)CC2)cc1 | -20.1%
Nc1nnc(-c2cccc(Cl)c2Cl)c(N)n1 | -6.7%
COc1ccccc1OC1(C(=O)O)CCN(c2ncnc(C)c2C)CC1 | 0.3%
CCc1nn(CCCC(=O)NC(C)c2ccccc2)c(=O)c2cc3occc3n12 (stereo not drawn) | -27.1%
O=C1CCCC2=C1C(c1ccn[nH]1)N=C(Nc1nc3ccccc3o1)N2 (stereo not drawn) | 1.6%
Cc1nc(NCc2ccccc2)c2nc(-c3ccccc3)n(CCN3CCCC3)c2n1 | i
CCOc1ccc(CCNC(=O)c2cn(C)c3ccc(S(=O)(=O)N4CCOCC4)cc3c2=O)cc1OCC | -12.2%
COc1cnccc1-c1nc(Nc2ccc(F)c(F)c2)c2ccccc2n1 | 1.1%
CCOC(=O)c1c2c3c(cccc3[nH]c1=O)C(=O)c1ccccc1-2 | ?
CCCn1c(C)nc2c(NCC(C)(C)CN(C)C)nc(C)nc21 | 2.2%
c1ccc(C2=NOC3(CCCN(CC4CCCC4)C3)C2)cc1 (stereo not drawn) | i

Given with tabs: entries from further up
SMILES	nsP2pro inh
CCN(CC)CCCNC(=O)c1nn(-c2ccc(OC)c(Cl)c2)c(=O)c2c1c1ccccc1n2C	20.8%
Cc1nc(NCc2ccccc2)c2nc(-c3ccccc3)n(CCN3CCCC3)c2n1	i
COc1cc(C(=O)Oc2c(Sc3ccccc3)c(C)nn2-c2ccccc2)cc(OC)c1OC	-21.0%
CCN(c1ccccc1)S(=O)(=O)c1nnc(NC(=O)COc2cccc(C)c2)s1	-20.0%

An excerpt; count on the stated rates, not on these rows.
